Source: PubChem BioAssay
CtBP-E1A blk = inhibitors of CtBP/E1A interaction; activity change, % (concentration not given with the values); AlphaScreen GST-E1A/His-CtBP binding, 1536-well; active compounds read low; control for the full effect not named in the record; 340,000 tested, 0.49% active; in the data active means activity change below about -65%; inconclusive means about -30% to -65%; inactive means above about -30%; further: on the % scale 0 is the no-effect control and ±100 the full control effect
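GST-E1A and His-tagged CtBP (125 nM each as 5X stock) were preincubated with pin-transferred compound for 2 h at 37 °C in the dark, then glutathione donor and nickel acceptor beads were added for 1 h before AlphaScreen reading.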
Sfp PPTase inh = inhibitors of Bacillus subtilis Sfp phosphopantetheinyl transferase; Q9F4F7; Biochemical Sfp PPTase activity, qHTS; Potency, µM, for inactives: max response, negative = inhibition, most hits filed as inhibitors; 310,000 tested, 3.5% active; AID 1490; active means well fitted inhibition curve with a large enough effect; inconclusive means small, poorly fitted or top-dose-only effect, or another doubt; inactive means no such curve, though single readings can be large or run the other way;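 further: the enzyme is Sfp with the accession as filed and its product quenches rhodamine fluorescence; potency means the concentration at half of the fitted maximal effect; 0% = enzyme reaction without inhibitor and -100% = no enzyme wells; top concentration of the series not given in the record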
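Compounds were incubated with enzyme (final 15 nM) for 15 min at room temperature before substrate addition started the reaction. Fluorescence at 525 nm excitation, 598 nm emission was recorded immediately and after 30 minutes.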
D2 ag = agonists of human D2 dopamine receptor (beta-arrestin); AID 624465; DiscoveRx PathHunter D2 beta-arrestin, luminescence, 90 min; 100% = 57 uM dopamine signal; P14416; 360,000 tested, 0.084% active; activation, % (no concentration beside the values); in the data active = activation above about 40%; inconclusive = about 15% to 40%; inactive = below about 15%; further: compound concentration not given in the record; the text of the record calls up to 30% inactive
Target sequence (P14416 whole entry, looked up): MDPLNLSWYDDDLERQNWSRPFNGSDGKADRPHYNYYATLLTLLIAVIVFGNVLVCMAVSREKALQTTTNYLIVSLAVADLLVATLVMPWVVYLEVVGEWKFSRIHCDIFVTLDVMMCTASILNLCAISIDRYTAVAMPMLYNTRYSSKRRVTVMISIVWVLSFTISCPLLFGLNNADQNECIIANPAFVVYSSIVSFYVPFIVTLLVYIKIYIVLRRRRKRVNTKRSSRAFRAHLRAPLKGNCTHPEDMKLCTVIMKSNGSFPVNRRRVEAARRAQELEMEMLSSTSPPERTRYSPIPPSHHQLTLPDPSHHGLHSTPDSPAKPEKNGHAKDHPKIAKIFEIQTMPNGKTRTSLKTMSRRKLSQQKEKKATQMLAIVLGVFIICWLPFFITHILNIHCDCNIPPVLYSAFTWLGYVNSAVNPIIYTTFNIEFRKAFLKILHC
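Agonist mode: compounds alone added to overnight-plated D2 PathHunter cells for 90 min at 37 C, with 57 uM final dopamine (EC100) defining full response. Beta-arrestin recruitment detected by chemiluminescent reagent, read after 1 h at ambient temperature.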
Six1-Eya2 inh = inhibitors of human Six1/Eya2 interaction; activity change, % (concentration not given with the values); 360,000 tested, 0.56% active; AlphaScreen GST-Six1/His-Eya2 binding, biochemical; active compounds read low; control for the full effect not named in the record; Q15475+O00167; in the data active = activity change below about -65%; inconclusive = about -30% to -65%; inactive = above about -30%; further: on the % scale 0 is the no-effect control and ±100 the full control effect
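GST-Six1 + His-Eya2 (5X stock: 250/500 nM); Tris pH 8.0, 300 mM NaCl, 0.05% BSA, 0.02% Tween 20; GSH donor/Ni acceptor beads; 1 h 37 °C dark; AlphaScreen readout.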
TRPV1 PAM = potentiators of human vanilloid receptor 1 (TRPV1); Q8NER1; TRPV1-expressing cells, Fluo-8 calcium influx, capsaicin EC20 potentiation; host cell line not named in the record; control for the full effect not named in the record; potentiation, % at 8.33 µM; 320,000 tested, 0.02% active; active means potentiation above 80%; inconclusive means 30% to 80%; inactive means below 30%; further: 0% is about no effect
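Cells expressing TRPV1 were dye-loaded with Fluo-8 and read kinetically: 10 s baseline, 3 min after compound (agonist portion), then 2 min after EC20 capsaicin (allosteric enhancer portion). Calcium-bound dye fluorescence at 480/520 nm.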
D2 potentiator = human D2 receptor positive allosteric modulation; P14416; DiscoveRx D2 beta-arrestin cells, luminescence, 90 min; 100% = 57 uM dopamine signal; potentiation, % (concentration not given with the values); 360,000 tested, 0.23% active; active = potentiation of 50% or more; inconclusive = 30% to 50%; inactive = 30% or less;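 further: compound concentration not given in the record; tested on top of an EC20 dose of dopamine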
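PathHunter beta-arrestin assay in DiscoveRx D2 cells. Compounds were added with an EC20 of dopamine (50 nM final) for 90 min at 37 deg C. Luminescence was read 1 h after detection reagent, with 57 uM dopamine as the EC100 control.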
PINK1 expr mod = modulators of PINK1 expression. PINK1 immunofluorescence, high-content cytometry, 24 h. Potency, µM (highest dose often 76.6 µM), without a hit: at the top dose activation (PINK1 increase), hits mostly activators. 410,000 tested, 0.2% active. AID 624263; active = well fitted activation curve with a large enough effect; inconclusive = small, poorly fitted or top-dose-only effect; inactive = flat fitted curve, though single readings scatter; cell line not stated here;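 further: potency means the concentration at half of the fitted maximal effect; % of control where 0% means no effect; nearly all actives have a fitted effect of over 65% in size; a mitochondrial uncoupler was the plate control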
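A stable cell line was treated with compounds at 5 concentrations for 24 hours, with CCCP as control. PINK1 levels and mitochondrial localization were measured by immunofluorescence with mitochondrial, cell and nuclear markers after fixation, read by laser-scanning cytometry.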
* = called active by the depositor; ? = inconclusive; nt = not tested or not shown; & = joins results of further samples; [ ] = another dose, or the depositor's remark. Random draw from the library; about 3.7% have a hit in one of these screens.

SMILES	CtBP-E1A blk	Sfp PPTase inh	D2 ag	Six1-Eya2 inh	TRPV1 PAM	D2 potentiator	PINK1 expr mod
CCCCCC(=O)N[C@@H](c1ccccc1)[C@@H](O)C(=O)O[C@H]1C[C@@]2(O)[C@@H](OC(=O)c3ccccc3)C3[C@](C)(C(=O)[C@H](OC(C)=O)C(=C1C)C2(C)C)[C@@H](O)C[C@H]1OC[C@@]31OC(C)=O (stereo not given in full)	4	16%	7.7	2	1	-9	6.4%
Brc1ccc(-c2nnc(-c3ccc4c(c3)OCO4)o2)o1	5	-5%	-1.7	-1	-7	-8	1.0%[38.3 µM]
Cc1cccc(CC(=O)NCCN2CCCCC2)c1	-3	8%	7.5	-20	-4	-11	-0.3%
CC(C)(CNC(=O)c1ccccc1F)CNC(=O)c1ccccc1F	-1	nt	1.4	0	nt	-2	-0.2%
COc1ccc(C(=O)Nc2ccc(NC(=O)c3cccs3)cc2)cc1Cl	nt	-9%	-1.5	6	18	-6	0.4%
Cc1ccc2c(c1)N(CC(=O)NC1CCCCCC1)C(=O)c1cccnc1O2	-9	7%	0.1	-2	-14	-13	1.3%
O=C(CCSCCC(=O)N1CCCC1)N1CCCC1	0	-5%	-2.7	0	23	0	1.1%
Cc1ccc(S(=O)(=O)C2(C(=O)NCc3ccccc3Cl)CC2)cc1	4	-9%	-2.4	-1	nt	-8	0.6%
O=C(COC(=O)C12CC3CC(CC(Br)(C3)C1)C2)Nc1c(F)cccc1F	9	nt	2.5	1	nt	4	0.6%
CCc1nnc(NC(=O)CN2CC(C)OC(C)C2)s1 (stereo not given)	nt	-3%	-0.5	-7	-3	-10	2.2%
Cc1nn(C(=O)c2ccc3c(c2)OCO3)c(N)c1-c1ccccc1	-15	-24%	-3.2	2	-31	-8	-1.1%
CC(=O)c1ccccc1OC(=O)c1ccco1	7	13%	0.3	8	3	6	1.7%[38.3 µM]
Cc1ccc2nc(-c3ccc(SCC(=O)Nc4ccc5c(c4)OCCO5)nc3)[nH]c2c1	-20	-25%	5.6	-12	-2	?	?
O=C1COc2ccc(S(=O)(=O)Nc3cccc(Cl)c3)cc2N1	1	24%	1.8	4	17	-4	1.2%
Cc1ccc(NC(=O)CS(=O)CC(=O)N(CC(=O)NC(C)(C)C)c2cccc(C)c2C)cc1 (stereo not given)	1	8%	-4.4	3	8	-11	3.9%
Cn1c(CCNS(=O)(=O)c2ccccc2)nc2cc([N+](=O)[O-])ccc21	1	-1%	-2.4	4	4	-8	0.2%
CC(=O)NCCN=Cc1sc2ccccc2c1O	0	-11%	-2.9	21	3	-16	-0.9%
CN1CCN(CCC(=O)Nc2ccc(OCc3ccccc3)cc2)CC1	2	-12%	-1.1	1	-3	-13	4.6%
O=C(NCc1cc(C(F)(F)F)ccc1Cl)c1cccc2c1C(=O)c1ccc(N3CCC(Cc4ccccc4)CC3)cc1S2(=O)=O	6	nt	-3.6	13	nt	-9	1.0%
CC(=O)c1c(C)[nH]c(C(=O)CSc2nnc3ccccn23)c1C	3	-2%	-0.9	-1	-4	-13	-0.9%
CC(=O)c1cccc(NC(=O)CSc2nnc(-c3ccncc3)o2)c1	nt	nt	-2.2	-2	0	-1	0.8%
CCOc1cc(C(=O)N/N=C/C(Br)=C/c2ccccc2)cc(OCC)c1OCC	-5	10%	-2.5	-5	-12	-4	-1.7%
CC(=O)N(c1ccc2oc(=O)sc2c1)S(=O)(=O)c1cccs1	-7	11µM*	3.3	-9	4	13	-3.8%
COc1cc(C(=O)Nc2c(C)cc(C)cc2C)c(Br)c(OC)c1OC	3	3%	-1.8	1	1	-4	1.1%
N#Cc1ccccc1OCC(=O)OCC(=O)NC1CCCC1	4	nt	-2.7	12	-8	13	-0.1%
COc1ccc(Cl)cc1N(C)C(=O)CCNC(=O)Cn1cnc2ccccc2c1=O	4	2%	3.3	3	-1	7	-3.6%[38.3 µM]
O=C(NCc1ccccc1)C12CC3CC(CC(C3)C1)C2	4	-16%	-0.3	-1	3	-9	-0.3%
Cc1c(OCC(=O)N[C@@H](Cc2c[nH]c3ccccc23)C(=O)O)ccc2c1oc(=O)c1ccccc12	-7	5%	4.7	-30	?	-4	0.0%
CCCCC1C(=O)NN(c2ccccc2)C1=O (stereo not given)	4	nt	-0.5	9	nt	-5	0.8%
CCOC(=O)N1CCN(C(=O)CN(C)S(=O)(=O)c2ccc(F)cc2)CC1	8	15%	0.1	8	-7	1	-0.1%
CCNS(=O)(=O)c1ccc(CCC(=O)N2CCN(c3cccc(Cl)c3)CC2)cc1	-17	17%	3.1	-1	-5	-4	2.0%
CC(=O)Nc1ccc(/C=N/NC(=S)NC(C)C)cc1	0	19%	-4.0	-9	0	-1	6.6%
Cn1c(CCN2CCN(c3ccccn3)CC2)nc2cc(NC(=O)COc3ccc(Cl)cc3)ccc21	-15	-3%	11	-11	28	-20	-0.8%
CCOc1ccc(CNC(=O)c2ccc(Sc3ccc(Cl)cc3)c(NC(C)=O)c2)cc1	-17	11%	-1.8	-8	4	-19	0.6%&-0.4%
COc1cc2c(cc1NC(=O)C(c1ccccc1)c1ccccc1)CCCC2	5	17%	-5.5	-6	-9	-26	6.8%
COc1ccc(OC(=O)N2CCOCC2)cc1	nt	9%	5.7	1	-4	-1	0.2%
NC(=O)c1ccc(/C(N)=N/S(=O)(=O)c2cc(C(F)(F)F)cc(C(F)(F)F)c2)cc1	2	22%	0.9	-2	-13	-7	0.7%
CC(=O)Oc1ccc2occ(C(=O)c3cccs3)c2c1	1	-1%	-0.3	1	-4	-6	1.3%
COc1ccc(Oc2ccc(C(F)(F)F)cc2NC(=O)c2ccc(C)cc2)cc1	nt	4%	-3.8	-1	24	-12	1.0%
CCOc1ccc(CCNC(=O)Cn2nc(C)n3cccc3c2=O)cc1OCC	nt	16%	0.3	0	-4	0	0.2%
COc1ccc(CCNC(=O)C2CCCN(c3nc4ccccc4s3)C2)cc1OC (stereo not given)	-3	12%	3.3	3	16	4	-1.1%
CC1(C)OC(=O)C(=CNn2cnc3ccccc3c2=O)C(=O)O1	7	22%	0.4	3	-6	-2	6.0%[38.3 µM]
CS(=O)(=O)c1ccc(NCCN2CCOCC2)c([N+](=O)[O-])c1	3	8%	1.9	1	-10	-3	-0.6%
COC(=O)[C@@H](Cc1ccccc1)NC(=O)NCCc1ccc(OC)c(OC)c1	nt	7%	1.1	0	-6	1	1.2%
CC1(C)Oc2ccc3ccc(=O)oc3c2/C(=C/NC2CCCCC2)C1=O	-26	-10%	0.0	?	-12	4	7.0%
COc1cc(OC)cc(C(=O)NNC(=O)CCC(=O)c2cc(C)sc2C)c1	-5	nt	-2.1	2	nt	-21	0.0%
CC(=O)Oc1ccc(CCC(C)OC(C)=O)cc1 (stereo not given)	-1	5%	3.4	6	-1	3	-1.1%[38.3 µM]
COc1ccc(C2C(C#N)=C(N)Oc3cc(O)ccc32)cc1 (stereo not given)	2	nt	-2.9	-3	nt	2	0.4%
COc1cccc(CNC(=O)C2CCN(S(=O)(=O)N3CCC4(CC3)OCCO4)CC2)c1	-3	9%	2.3	5	-7	-29	0.7%
C/C(=N\NC(=O)c1nonc1N)c1cccs1	0	-6%	-2.6	-2	-2	-5	0.0%
CN(C)c1cccc(C(=O)NNC(=O)C23CC4CC(CC(C4)C2)C3)c1	0	nt	0.0	-3	nt	1	0.9%
O=C(NCc1cccs1)C1CC(O)CN1C(=O)Nc1ccccc1 (stereo not given)	-23	-2%	2.4	-11	4	-3	3.5%
Cc1cc(C)n(CC(=O)NC2CCCc3c2cnn3-c2ccc(C)c(C)c2)n1 (stereo not given)	4	10%	-1.5	-1	13	-5	0.5%
CC(C)COc1cccc(C(=O)Nc2ccc(CN3CCOCC3)cc2)c1	-2	-6%	-2.5	-11	-1	-21	2.0%
COc1cc(C)c(N)cc1C(C)C	-6	27%	-4.5	-12	9	-12	2.3%[38.3 µM]
CC(=O)c1ccc(Nc2cc(C)nc3ncnn23)cc1	-4	11%	-0.5	-22	3	-3	0.3%
COc1ccc(C2CCCCC2SCC(=O)O)cc1OC (stereo not given)	3	nt	0.2	7	nt	-5	1.5%
O=C(c1ccncc1)N1CCN(S(=O)(=O)c2ccc3ccccc3c2)CC1	1	?	-0.6	7	-5	-1	1.4%
Cc1ccc(S(=O)(=O)N2CCN(C(=O)CSc3ccccn3)CC2)c(C)c1	7	nt	-1.7	-7	-9	24	0.2%
CCc1cccc(CC)c1NC(=O)Cn1c(-c2ccc(F)cc2)noc1=O	-9	8%	1.8	1	6	7	1.0%
Cc1ccc(CN2CCN(Cc3cccc4c3OCO4)CC2CCO)cc1 (stereo not given)	4	11%	-1.2	-3	4	-13	0.1%
C/C(=N\NC(=O)c1nn(C)cc1Br)c1ccncc1	-1	2%	-6.3	-2	-10	-20	-1.2%
Cc1cccc(OCc2nnc(SCC(=O)Nc3sc(C)c(C)c3C#N)n2C)c1	0	11%	-0.3	6	-3	-12	2.9%

Among those listed so far, these have an aryl thioether with sulfur outside any ring.
SMILES	CtBP-E1A blk	Sfp PPTase inh	D2 ag	Six1-Eya2 inh	TRPV1 PAM	D2 potentiator	PINK1 expr mod
Cc1ccc2nc(-c3ccc(SCC(=O)Nc4ccc5c(c4)OCCO5)nc3)[nH]c2c1	-20	-25%	5.6	-12	-2	?	?
CC(=O)c1c(C)[nH]c(C(=O)CSc2nnc3ccccn23)c1C	3	-2%	-0.9	-1	-4	-13	-0.9%
CC(=O)c1cccc(NC(=O)CSc2nnc(-c3ccncc3)o2)c1	nt	nt	-2.2	-2	0	-1	0.8%
CCOc1ccc(CNC(=O)c2ccc(Sc3ccc(Cl)cc3)c(NC(C)=O)c2)cc1	-17	11%	-1.8	-8	4	-19	0.6%&-0.4%
Cc1ccc(S(=O)(=O)N2CCN(C(=O)CSc3ccccn3)CC2)c(C)c1	7	nt	-1.7	-7	-9	24	0.2%
Cc1cccc(OCc2nnc(SCC(=O)Nc3sc(C)c(C)c3C#N)n2C)c1	0	11%	-0.3	6	-3	-12	2.9%
